# BJeLR viab HTS = BJeLR cell viability loss, primary screen, luminescence, CellTiterGlo ATP | BJeLR fibroblasts viability, 48 h; HRASV12, hTERT and SV40 LT/ST transformed | viability loss activity score, % (no concentration beside the values) | 30,000 tested, 0.64% active | AID 2275, 2010; in the data active = viability loss activity score above about 50%; about a fifth of its hits are not listed in these tables;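 also: higher score means fewer live cells and less ATP luminescence; stock transfer was 50 or 100 nL into about 30 µL; 0% = vehicle wells and 100% = a reference killing control; one replicate is shown; the record names a cut of 85%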
# A1 inh = inducers of caspase activity in MEF A1-2A-BIM cells, primary screen, A1 inhibitor project, cell-based, CaspaseGlo luminescence | caspase-Glo luminescence, 3 h; percent of clofoctol signal, DMSO as zero | caspase activation, % (concentration not given with the values) | 21,000 tested, 0.51% active | AID 2241, 2010;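 active = most replicate scores above 10, or exactly half above 10 with mean activity above 10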;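 also: effector caspase 3 and 7 activity cleaving a DEVD luciferin substrate; 50 nL library stock added to about 30 µL; numbers are from one replicate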
# The depositor's hits bear a star; · = no result given.
SMILES,BJeLR viab HTS,A1 inh
Cc1ccc(S(=O)(=O)N(C)C[C@H]2Oc3ccc(NC(=O)C4CC4)cc3C(=O)N([C@@H](C)CO)C[C@@H]2C)cc1,-3.5,-0.1
CCCCC(=O)/C=C/n1c(=S)oc2ccccc21,-2.1,-0.7
COc1ccc(C(=O)NCc2cn3ccsc3n2)cc1OC,-6.6,-5.3
COc1ccc(Cl)c(C(=O)OCC(=O)Nc2ccc(F)cc2)c1,4.5,0.6
N#Cc1c(-n2cccc2)sc2c1CCCC2,6.4,-0.4
CCCCN(C)S(=O)(=O)c1ccc2c(c1)CCN2C(=O)CC,-2.1,·
COC(=O)C1C(=O)C2=C(CC1C)NC(=O)CC2c1cccc(OC)c1 (centres undefined),2.8,·
Cc1noc(C)c1S(=O)(=O)Nc1ccc2c(c1)C(=O)N([C@@H](C)CO)C[C@@H](C)[C@@H](CN(C)C(=O)Nc1ccc3c(c1)OCO3)O2,-1.9,-0.2
COc1ccc(C(=O)NCCc2nnc3ccc(SCC(=O)Nc4ccc(C)cc4C)nn23)cc1,1.8,-0.1
CC(C)NC(=O)N(C)C[C@H]1Oc2c(NC(=O)Nc3ccccc3)cccc2C(=O)N([C@H](C)CO)C[C@H]1C,3.7,·
COc1ccccc1NC(=O)C1C=C2C=CC=CC2OC1=Nc1ccccc1F (centres undefined),-7.9,-0.3
O=S(=O)(Cc1ccc(C(F)(F)F)cc1)c1ccc(Cl)cc1,-2.7,0.7
C[C@H]1CN([C@@H](C)CO)C(=O)c2cccc(NC(=O)c3ccncc3)c2O[C@@H]1CN(C)C(=O)Nc1ccccc1,2.7,·
Cc1ccc(S(=O)(=O)Nc2ccc3c(c2)C(=O)N([C@@H](C)CO)C[C@@H](C)[C@@H](CN(C)C(=O)Nc2ccc(F)cc2)O3)cc1,-0.8,0.9
CC(C)(Oc1ccc(Cl)cc1)C(=O)NC1CCCCNC1=O (centres undefined),-1.3,-0.2
COc1ccc(NC(=O)N(C)C[C@@H]2Oc3c(NS(=O)(=O)c4ccc(F)cc4)cccc3C(=O)N([C@@H](C)CO)C[C@H]2C)cc1,1.1,·
Cc1ccc(C(=O)c2oc3ccccc3c2NC(=O)C(C)C)cc1,4.8,·
C[C@@H]1CN([C@H](C)CO)C(=O)c2cccc(NC(=O)c3ccc(-c4nccs4)cc3)c2O[C@H]1CN(C)C(=O)Nc1ccc(C(F)(F)F)cc1,-0.5,·
C[C@@H]1CN([C@@H](C)CO)C(=O)c2cccc(NC(=O)Nc3ccccc3)c2O[C@@H]1CN(C)S(=O)(=O)c1ccc(F)cc1,-3.0,·
S=C(Nc1ccc(Cl)c(Cl)c1)NC1CCCC1,1.2,-0.7

# 5 compounds already listed, sorted by SMILES length, smallest number first:
SMILES,BJeLR viab HTS,A1 inh
S=C(Nc1ccc(Cl)c(Cl)c1)NC1CCCC1,1.2,-0.7
O=S(=O)(Cc1ccc(C(F)(F)F)cc1)c1ccc(Cl)cc1,-2.7,0.7
COc1ccccc1NC(=O)C1C=C2C=CC=CC2OC1=Nc1ccccc1F (centres undefined),-7.9,-0.3
COc1ccc(C(=O)NCCc2nnc3ccc(SCC(=O)Nc4ccc(C)cc4C)nn23)cc1,1.8,-0.1
Cc1noc(C)c1S(=O)(=O)Nc1ccc2c(c1)C(=O)N([C@@H](C)CO)C[C@@H](C)[C@@H](CN(C)C(=O)Nc1ccc3c(c1)OCO3)O2,-1.9,-0.2

# Other structures follow:
SMILES,BJeLR viab HTS,A1 inh
Cc1ccc(S(=O)(=O)Nc2cccc3c2O[C@H](CN(C)C)[C@H](C)CN([C@H](C)CO)C3=O)cc1,-4.5,·
N#Cc1ccc(CSc2ccccn2)c(Cl)c1,0.7,0.4
CN(C)c1ccc2c3c(ccc(N(C)C)c13)C(=O)OC2,3.2,·
C[C@H](CO)N1C[C@H](C)[C@H](CN(C)C(=O)Nc2ccccc2)Oc2c(NC(=O)c3nc4ccccc4s3)cccc2C1=O,-7.6,·
COc1ccc(S(=O)(=O)N(C)C[C@H]2Oc3ccc(NC(=O)CCN4CCOCC4)cc3C(=O)N([C@@H](C)CO)C[C@H]2C)cc1,6.2,-0.3
O=C(O)/C=C\C(=O)N1CCN(c2nc(-c3ccccc3)ns2)CC1,3.2,·
NNC(=O)c1csc(-c2cccs2)n1,-2.2,-1.6
Cc1cc(C)c2c(=O)[nH]c(SCC(=O)Nc3ccccc3)nc2n1,4.4,0.9
C[C@@H]1CN([C@@H](C)CO)C(=O)c2cccc(NC(=O)Nc3ccc(F)cc3)c2O[C@@H]1CN(C)CC1CCCCC1,-4.5,·
Cc1ccc(S(=O)(=O)N(C)C[C@@H]2Oc3ccc(NC(=O)NC4CCCCC4)cc3C(=O)N([C@H](C)CO)C[C@H]2C)cc1,2.2,-0.9
N#Cc1cccc(Cn2cc(C(F)(F)F)ccc2=O)c1,3.2,-0.4
CCCN(CCC)C(=O)c1cnn(-c2ccccc2)c1NC(=O)c1ccccc1,-0.6,-0.3
CCCCc1c(O)nc(SCC(=O)N2CCCCC2)[nH]c1=O,0.5,0.3
COc1ccc(S(=O)(=O)Nc2ccc3c(c2)C(=O)N([C@H](C)CO)C[C@@H](C)[C@H](CN(C)C(=O)Nc2cccc4ccccc24)O3)cc1,-1.2,0.1
O=C(c1ccc(O)cc1)c1c(O)cc(O)c([C@@H]2O[C@H](CO)[C@@H](O)[C@H](O)[C@H]2O)c1O,-7.6,0.3
CCc1ccc(NC(=O)c2nn(-c3ccc(C)cc3)c(=O)c3c2c2ccccc2n3C)cc1,0.2,·
CN1CCN(c2ccccc2NS(=O)(=O)c2ccc3c(c2)SCC(=O)N3)CC1,0.3,-5.8
Cn1cnnc1SCC(=O)NCc1cccc(C(F)(F)F)c1,-7.8,0.8
Cc1ccc(-c2nc3c(cnn3-c3ccccc3)c(=O)n2-c2cccc(C)c2)cc1,0.8,-0.2
Cc1cccc(Cl)c1NC(=S)NC(Cc1ccccc1)c1ccccc1 (centres undefined),-2.4,0.1
N#Cc1c(-c2cccnc2)c2c([nH]c1=O)-c1ccccc1CC2,-8.4,-0.9
COc1ccc(NC(=O)Nc2cccc3c2O[C@H](CN(C)C(=O)Nc2ccc(C(F)(F)F)cc2)[C@H](C)CN([C@@H](C)CO)C3=O)cc1,-1.5,·
CCc1ccc2[nH]cc(S(=O)(=O)c3ccccc3)c(=O)c2c1,6.1,·
COc1ccc(NC(=O)N(C)C[C@H]2Oc3c(NC(=O)C4CCCCC4)cccc3C(=O)N([C@H](C)CO)C[C@H]2C)cc1,4.4,·
Cn1nc(-c2cccc(C3OCCO3)c2)c(=O)n(C)c1=S,-6.3,-0.2
CNC[C@H]1Oc2c(NS(=O)(=O)c3cccs3)cccc2C(=O)N([C@H](C)CO)C[C@H]1C,1.5,·
C[C@H]1CN([C@@H](C)CO)C(=O)c2cccc(NS(=O)(=O)c3ccc(F)cc3)c2O[C@@H]1CN(C)Cc1ccccc1,-3.9,·
C[C@H](CO)N1C[C@H](C)[C@H](CN(C)S(C)(=O)=O)Oc2ccc(NC(=O)Cc3ccccc3)cc2C1=O,3.0,0.8
Cc1noc(C)c1S(=O)(=O)Nc1ccc2c(c1)C(=O)N([C@H](C)CO)C[C@@H](C)[C@@H](CN(C)S(=O)(=O)c1cn(C)cn1)O2,-1.5,0.2
Cc1ccc(S(=O)(=O)N(C)C[C@H]2Oc3c(NS(=O)(=O)c4ccc(F)cc4)cccc3C(=O)N([C@@H](C)CO)C[C@@H]2C)cc1,-0.5,·
O=c1cc(O)c2sc3nc(-c4cccs4)cc(C(F)(F)F)c3c2[nH]1,3.2,0.0
COC(=O)c1cccc(NC(N)=S)c1,-1.6,0.3
COc1cc(/C=C/C(=O)/C=C/c2ccc(N(C)C)cc2)cc(OC)c1OC,5.6,0.1
FC(F)(F)c1cccc(OCCNc2nc3ccccc3c3nc(-c4cccnc4)nn23)c1,-8.5,·
Cc1noc(C)c1NC(=O)Nc1ccc2c(c1)C(=O)N([C@H](C)CO)C[C@@H](C)[C@@H](CN(C)S(=O)(=O)c1ccc(Cl)cc1)O2,0.9,-0.2
O=c1[nH]c(SC/C=C/c2ccccc2)nc2sc3c(c12)CCC3,2.7,0.4
C[C@@H]1CN([C@@H](C)CO)C(=O)c2cccc(NS(=O)(=O)c3ccccc3)c2O[C@H]1CN(C)C(=O)NC1CCCCC1,-2.7,·
NC(N)=NS(=O)(=O)c1ccc(NC(=O)c2ccco2)cc1,-1.4,0.8
O=C(C(NS(=O)(=O)c1cccc2nsnc12)c1ccccc1)N1CCc2ccccc21 (centres undefined),2.2,·
CC1CCC(C(C)C)C(N(Cc2ccccc2)C(=O)c2cccs2)C1 (centres undefined),-2.1,2.8

# Copied from the list.
# For BJeLR viab HTS, COc1ccc(NC(=O)N(C)C[C@H]2Oc3c(NC(=O)C4CCCCC4)cccc3C(=O)N([C@H](C)CO)C[C@H]2C)cc1 is listed with 4.4
# For BJeLR viab HTS, Cc1noc(C)c1S(=O)(=O)Nc1ccc2c(c1)C(=O)N([C@H](C)CO)C[C@@H](C)[C@@H](CN(C)S(=O)(=O)c1cn(C)cn1)O2 is listed with -1.5
# For A1 inh, NC(N)=NS(=O)(=O)c1ccc(NC(=O)c2ccco2)cc1 is listed with 0.8

# Following part
SMILES,BJeLR viab HTS,A1 inh
COc1ccc(NC(=O)Nc2ccc3c(c2)C(=O)N([C@H](C)CO)C[C@H](C)[C@H](CN(C)C(=O)NC(C)C)O3)cc1,-0.6,0.4
C[C@@H]1CN([C@@H](C)CO)C(=O)c2cccc(NS(=O)(=O)c3cccs3)c2O[C@H]1CN(C)C(=O)Nc1ccccc1,0.3,·
C[C@H](CO)N1C[C@H](C)[C@H](CN(C)S(C)(=O)=O)Oc2c(NC(=O)c3ccncc3)cccc2C1=O,-0.9,·
C[C@H](CO)N1C[C@H](C)[C@@H](CN(C)C(=O)Nc2ccccc2)Oc2c(NC(=O)C3CC3)cccc2C1=O,-1.5,·
COc1ccc(CNC(=O)C2CSC(=O)C2)cc1 (centres undefined),7.7,-0.5
COc1ccc(S(=O)(=O)Nc2cccc3c2O[C@@H](CN(C)C)[C@H](C)CN([C@H](C)CO)C3=O)cc1,-2.7,·
CCN(Cc1ccccc1)S(=O)(=O)c1ccc2c(c1)oc(=O)n2C,6.4,·
Clc1ccc(C(Cn2ccnc2)OCc2csc3c(Cl)cccc23)c(Cl)c1 (centres undefined),-0.2,-0.2
C[C@H]1CN([C@@H](C)CO)C(=O)c2cccc(NS(=O)(=O)c3ccc(F)cc3)c2O[C@H]1CN(C)Cc1ccc(C(F)(F)F)cc1,-0.4,·
Cc1noc(C)c1NC(=O)Nc1cccc2c1O[C@H](CN(C)C)[C@H](C)CN([C@@H](C)CO)C2=O,4.4,·
O=C(CSc1ccc(-c2cccs2)nn1)N1CCc2ccccc21,-5.9,0.0
O=C(Nc1cccnc1Cl)C1CSC(c2ccncc2)=N1 (centres undefined),1.2,·
COc1ccc(CNC(=O)CCn2c(=O)[nH]c3ccccc3c2=O)cc1,4.5,-1.1
CCn1c(=O)c2cc(C(=O)N(C)c3cc(Cl)ccc3C)sc2c2ccccc21,1.1,·
C[C@@H]1CN([C@@H](C)CO)C(=O)c2cccc(NC(=O)c3nc4ccccc4s3)c2O[C@@H]1CN(C)Cc1ccc(C(F)(F)F)cc1,-4.4,·
Cc1nc2nc(C)c(CCC(=O)NCCC3=CCCCC3)c(C)n2n1,-12,·
N#Cc1cc2c(=O)n3ccccc3nc2n(-c2cccc(C(F)(F)F)c2)c1=O,-1.2,0.3
C[C@@H]1CN([C@@H](C)CO)C(=O)c2cccc(NS(C)(=O)=O)c2O[C@H]1CN(C)Cc1ccc2c(c1)OCO2,2.4,·
COc1ccc(S(=O)(=O)N(C)C[C@H]2Oc3c(NC(=O)C4CCOCC4)cccc3C(=O)N([C@H](C)CO)C[C@@H]2C)cc1,7.8,·
COc1ccc(S(=O)(=O)Nc2cccc3c2O[C@H](CN(C)Cc2ccncc2)[C@@H](C)CN([C@H](C)CO)C3=O)cc1,-8.3,·
Cc1noc(C)c1S(=O)(=O)Nc1ccc2c(c1)C(=O)N([C@H](C)CO)C[C@@H](C)[C@H](CN(C)Cc1ccc(-c3ccccc3)cc1)O2,-3.6,0.4
Cc1cc(C(=O)Nc2cccc3c2O[C@H](CN(C)Cc2ccc(C(=O)O)cc2)[C@@H](C)CN([C@H](C)CO)C3=O)n(C)n1,0.0,·
CN1CCN(c2ncc3c(=S)[nH]c(=S)[nH]c3n2)CC1,-0.8,-0.3
C[C@H](CO)N1C[C@H](C)[C@H](CN(C)S(=O)(=O)c2ccccc2)Oc2ccc(NC(=O)Cc3ccccc3)cc2C1=O,-2.6,0.4
COc1cccc(/C=N/O)c1O,-1.7,-0.1
Cc1c(C(=O)NCc2ccco2)cc(-c2ccccc2)n1CCSCc1c(F)cccc1Cl,-6.0,0.7
COc1ccc(-c2csc(=Nc3cc(C(=O)O)ccc3C)o2)cc1,-0.7,-1.4
C[C@H](CO)N1C[C@H](C)[C@@H](CN(C)S(=O)(=O)c2ccc(F)cc2)Oc2ccc(NC(=O)C3CC3)cc2C1=O,5.4,0.9
C[C@H](CO)N1C[C@H](C)[C@@H](CN(C)Cc2ccc3c(c2)OCO3)Oc2ccc(NC(=O)Nc3ccc(C(F)(F)F)cc3)cc2C1=O,-1.6,0.4
COc1cccc(C(O)c2nccn2C)c1OC (centres undefined),-6.5,-0.2
C[C@@H]1CN([C@@H](C)CO)C(=O)c2cc(NS(C)(=O)=O)ccc2O[C@H]1CN(C)Cc1ccc(C(=O)O)cc1,0.1,0.6
FC(F)(F)c1cccc(/C=N/n2cnnc2SCc2ccccc2)c1,1.2,0.1
CC(C)CNP(=O)(OC1CC(C)CCC1C(C)C)c1ccccc1 (centres undefined),0.1,0.2

# From PubChem

# The list is partial; rates above refer to the full screens.
